Source: PubChem
TAR Tat displ – TAR RNA-Tat peptide displacers, HIV-1, primary screen, biochemical, FRET, FAM/TAMRA-labeled Tat | HIV-1 TAR RNA, Tat peptide displacement FRET; stronger effect = higher value | z-score (no concentration beside the values) | hit rate 0.6% among 100,000 | AID 1259389, 2018;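 note: score is relative to mean and SD of negative controls; some compounds called inactive have numbers as strong as hits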
CDC25B-CDK2 inh – primary biochemical HTRF screen for blockers of M-phase inducer phosphatase 2 binding to CDK2/cyclin A. P30305+P24941. HTRF CDC25B-CDK2/CyclinA binding, anti-His/anti-Flag; stronger effect = higher value. z-score (test concentration not listed). hit rate 0.72% among 94,000. AID 1259370, 2018;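 note: score is relative to mean and SD of negative controls; strong numbers were not always called active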
Numbers without * were called inactive; . = not tested or not shown.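 Rule for the calls: active = z-score from 3 up in half or more of its runs; inactive = the rest.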

SMILES | TAR Tat displ | CDC25B-CDK2 inh
CCN1CCN(C(=O)c2ccc(-n3ccc4ccccc43)s2)CC1 | 0.09 | .
O=C(C1CCN(S(=O)(=O)c2cccnc2)CC1)N1CCCCCC1 | . | -0.68
Cc1nc2ccc(S(=O)(=O)NC(C(=O)NC3CCCCCC3)C(C)C)cc2s1 (configuration not stated) | . | -2.51
Cc1cc(C)n(-c2nc3ccccc3nc2Nc2ccccc2)n1 | -0.42 | -1.6
Cc1ccc(S(=O)(=O)c2nnn3c2nc(NCC2CCCO2)c2ccccc23)cc1C (configuration not stated) | -2.04 | -1.48
COCCCNc1oc(-c2ccc(OC)cc2)nc1C#N | 1.17 | 0.09
O=C(CCc1nc(-c2ccco2)no1)Nc1ccccn1 | 0.28 | -1.36
O=C1CC(Cc2ccc(Cl)cc2)C(=O)N1Cc1ccccc1 (configuration not stated) | 1.39 | -0.39
Cc1onc(-c2ccccc2)c1CNS(=O)(=O)c1cnn(-c2ccccc2)c1C | . | -1.16
c1cncc(-c2nn3cnnc3s2)c1 | -0.89 | -0.96
COc1cc(OC)c(NS(=O)(=O)c2ccc3c(c2)CC(C)N3C(C)=O)cc1Cl (configuration not stated) | 1.38 | .
COc1ccc(CCNS(=O)(=O)c2c(C)nc3scc(C)n3c2=O)cc1OC | -0.31 | -1.67
CC1CCCCN1C(=O)C1CCN(c2ncnc3c2nc2n3CCCCC2)CC1 (configuration not stated) | 1.84 | .
CC(C)(O)C1Cc2cc(C3=C(O)/C(=C/c4ccc5c(c4)C[C@@H](C(C)(C)O)O5)OC3=O)ccc2O1 (some centres not stated) | 3.25 | .
CN(C(=O)c1cc2c(s1)-c1ccccc1S(=O)(=O)C2)c1ccccc1F | 2.57 | -3.02
O=C(CSc1nnc(-c2ccccc2Cl)o1)N1CCCC1 | -0.58 | -2.3
CC(CNS(=O)(=O)c1cc(F)ccc1CN1C(=O)c2cccnc2C1=O)c1ccccc1 (configuration not stated) | -0.4 | .
O=C(O)C(F)(F)C(F)(F)C(=O)NCc1cccc(Cl)c1 | . | 0.15
CCn1nc(-c2ccc(C(=O)OC)cc2)nc2c(=O)n(C)c(=O)nc1-2 | -7.25 | -0.7
CC1(C)Cc2c(c(N3CCCC3)nc3sc4c(N5CCCC5)ncnc4c23)CO1 | 0.43 | 2.28
O=C(NC1CCS(=O)(=O)C1)C12CC3CC(CC(C3)C1)C2 (configuration not stated) | . | 0.2
O=C(CC1(O)C(=O)Nc2ccc(Br)cc21)c1ccc2c(c1)OCO2 (configuration not stated) | 2.65 | -0.36
O=c1nc(Nc2nc(=O)c3ccccc3s2)[nH]c(=O)[nH]1 | . | -1.16
OC(c1ccccc1)(C1CCCCC1)C(CN1CCOCC1)c1ccccc1 (configuration not stated) | 0.04 | -1.21
c1ccc(-c2nnn(Cc3nnc4n3CCCCC4)n2)cc1 | . | -0.87
Additional records follow:
SMILES | TAR Tat displ | CDC25B-CDK2 inh
Cc1ccc(CN(C(=O)c2cc(=O)c3ccc(C)cc3o2)C2CCS(=O)(=O)C2)cc1 (configuration not stated) | 0.28 | -0.82
O=C(CCS(=O)(=O)c1ccc2c(c1)CCN2C(=O)C1CC1)N1CC=C(c2ccccc2)CC1 | 0.9 | .
COc1ccc(-c2csc3nc(-c4ccccc4F)oc(=O)c23)cc1 | 0.12 | -1.28
Cc1ccccc1Nc1c(-c2ccc(Cl)cc2)nc2cnccn12 | -0.85 | 0.48
O=c1c([N+](=O)[O-])c[nH]n(-c2ccccc2)c1=O | . | -1.7
O=C(Nc1ccc(Br)cc1F)C1CCCN(S(=O)(=O)N2CCOCC2)C1 (configuration not stated) | -3.41 | .
O=S(=O)(c1ccc2nc(-c3ccccc3)[nH]c2c1)N1CCN(c2ccccc2Cl)CC1 | . | -1.1
C#CCOC(=O)Nc1cnc(Sc2ccccc2)c(C(F)(F)F)c1 | . | -1.55
CCSc1nc(SC)nc2sc3c(c12)CC(C)(C)OC3 | 2.16 | -0.58
CC(C)(C)SC1CCS(=O)(=O)C1 (configuration not stated) | 1.16 | -1.8
CN(Cc1ccccc1)C(=O)CCC(=O)N1CC2CCCN2c2ccccc21 (configuration not stated) | 0.39 | .
Cc1ccc2onc(CNC(=O)NCc3ccco3)c2c1 | -0.02 | .
CN(C)C(=O)c1ccc2c(c1)nc(CN1CCN(S(C)(=O)=O)CC1)n2C | 1.47 | .
CC1(C)Cc2nc3sc4c(NCCCO)ncnc4c3cc2CO1 | -0.07 | -1.02
O=c1c(NCc2ccc(Cl)cc2)c(-c2ccc(Cl)cc2)c1=O | -0.53 | .
CC1Cc2nc(SCC(=O)N3CCOCC3)n(-c3ccccc3)c(=O)c2S1 (configuration not stated) | 1.32 | 0.28
O=C(Nc1ccc(F)cc1)c1cc(=O)c2ccccc2o1 | . | 0.06
CCCCCOC(=O)Cn1c(=O)oc2ccccc21 | 0.15 | 1.33
Cc1ccc(C2CC(C(F)(F)F)n3nc(C(=O)NC4CCCC4)c(Cl)c3N2)cc1 (configuration not stated) | 0.33 | 0.01
c1ccc2c(c1)NC(c1ccsc1)n1c-2nc2ccccc21 (configuration not stated) | 0.94 | 0.11
CCC(C)(C)n1c(=O)[nH]c2c(c1=O)CCC2 | . | -0.49
CC1=C(c2ccc(C(C)C)cc2)S(=O)(=O)N(Cc2ccc(C(=O)NCc3ccc(C)o3)cc2)C1=O | 0.8 | .
O=C(CN1C(=O)C2(OCCO2)c2ccccc21)c1ccc(Br)cc1 | . | -0.03
O=S(=O)(c1ccc(S(=O)(=O)N2CCN(c3ncccn3)CC2)cc1)N1CCOCC1 | 0.08 | 0.7
COc1ccc(C2=NC(c3ccsc3)NC(c3ccccc3O)C2)cc1 (configuration not stated) | 1.98 | -1.63
Next section
SMILES | TAR Tat displ | CDC25B-CDK2 inh
O=C(Nc1ccc(F)cc1F)c1cc2c(s1)-c1ccsc1CC2 | 0.48 | .
CN1C(=O)c2ccccc2C(C(=O)NCCN2CCc3ccccc3C2)C1c1cn(C)c2ccccc12 (configuration not stated) | . | -3.14
CCN(CC)CCn1c(C)c(C)c2c1ncn1nc(-c3cccc(C)c3)nc21 | -0.85 | -1.41
O=C1CC(c2cccc(Cl)c2)C2=C(CC(c3ccc(F)cc3)CC2=O)N1 (configuration not stated) | 0.29 | -0.09
O=C1CCCN=C(N(C(=O)c2ccco2)c2cccc(C(F)(F)F)c2)S1 | . | -1.2
Cc1noc(C)c1S(=O)(=O)N1CCN(c2ccccn2)CC1 | . | -1.38
CC(O)CNC(=O)c1c(O)nc2ccccn2c1=O (configuration not stated) | 0.01 | -1.7
Brc1ccc(-n2nnnc2-c2cn[nH]c2-c2ccccc2)cc1 | . | -1.54
S=c1[nH]nc(COc2ccccc2)n1Cc1ccccc1 | . | -0.63
Cc1ccc2nc(C3=C(O)CN(c4ccccc4)C3=N)[nH]c2c1 | 2.84 | -2.83
c1ccc(N2CCN(c3ccc4nncn4n3)CC2)nc1 | -1.17 | -1.04
CCn1c(=S)[nH]c2sc3c(c2c1=O)CCC(C)C3 (configuration not stated) | . | -4.99
CCNc1ncnc2onc(-c3cc(F)cc(F)c3)c12 | -0.06 | .
O=C1CS/C(=C/C(=O)N2CCCC2)N1 | . | -1.64
C[C@@H]1O[C@@H](Oc2c(-c3cc(O)c(O)c(O)c3)oc3cc(O)cc(O)c3c2=O)[C@H](O)[C@H](O)[C@H]1O | 3.88 | .
CN(C(=O)Cc1c(C(=O)O)[nH]c2ccc(Cl)cc12)c1cccc(Cl)c1 | . | -0.8
CC(C)CC(NS(=O)(=O)c1ccc2c(c1)oc(=O)n2C)C(=O)Nc1ccc(Cl)cc1 (configuration not stated) | -0.26 | -1.37
Cc1ccc(C2Nn3c(C)nnc3SC2C(=O)Nc2ccc(Br)c(C)c2)cc1 (configuration not stated) | -1.24 | -1.11
Cc1ccc(S(=O)(=O)N2CCn3c(nc4ccccc43)C2)cc1 | . | -1.19
CC1CN(C2=NCCN2)CC(C)O1 (configuration not stated) | . | -0.42
Fc1ccc(C2Oc3ccccc3C3CC(c4ccco4)=NN32)cc1 (configuration not stated) | -2.89 | -1.26
COc1cnc(CSc2nnnn2C)cc1OCC(=O)Nc1ccc(Br)cc1 | 0.37 | .
CCOC(=O)CSc1ncnc2sc3c(c12)CCC(C)C3 (configuration not stated) | 0.11 | 0.71
CC(=O)N1c2ccc(S(=O)(=O)NCC3CCC(C(=O)NC4CCCCC4C)CC3)cc2CC1C (configuration not stated) | -0.31 | .
CCC(CC)C(=O)N1CCC(c2nc3ccccc3o2)CC1 | 3.47 | -0.56

Compounds listed so far containing an aryl methoxy group:
SMILES | TAR Tat displ | CDC25B-CDK2 inh
COCCCNc1oc(-c2ccc(OC)cc2)nc1C#N | 1.17 | 0.09
COc1cc(OC)c(NS(=O)(=O)c2ccc3c(c2)CC(C)N3C(C)=O)cc1Cl (configuration not stated) | 1.38 | .
COc1ccc(CCNS(=O)(=O)c2c(C)nc3scc(C)n3c2=O)cc1OC | -0.31 | -1.67
COc1ccc(-c2csc3nc(-c4ccccc4F)oc(=O)c23)cc1 | 0.12 | -1.28
COc1ccc(C2=NC(c3ccsc3)NC(c3ccccc3O)C2)cc1 (configuration not stated) | 1.98 | -1.63
COc1cnc(CSc2nnnn2C)cc1OCC(=O)Nc1ccc(Br)cc1 | 0.37 | .

Some of the entries so far, as labelled records.
compound: Brc1ccc(-n2nnnc2-c2cn[nH]c2-c2ccccc2)cc1
  TAR Tat displ: .
  CDC25B-CDK2 inh: -1.54

compound: S=c1[nH]nc(COc2ccccc2)n1Cc1ccccc1
  TAR Tat displ: .
  CDC25B-CDK2 inh: -0.63

compound: Cc1ccc2nc(C3=C(O)CN(c4ccccc4)C3=N)[nH]c2c1
  TAR Tat displ: 2.84
  CDC25B-CDK2 inh: -2.83

compound: c1ccc(N2CCN(c3ccc4nncn4n3)CC2)nc1
  TAR Tat displ: -1.17
  CDC25B-CDK2 inh: -1.04

Next structures follow:
SMILES | TAR Tat displ | CDC25B-CDK2 inh
O=C(Nc1ccc(Cl)cn1)C1=Cc2sc3c(c2CS1)CCCC3 | -5.1 | .
Fc1cccc(Cl)c1CN1CCN(c2ncnc3scc(-c4cccs4)c23)CC1 | . | -1.08
NC(=O)CSc1nnc2ccccn12 | 0.56 | -0.3
Cc1ccc(-c2noc(-c3nnn(-c4cccc(F)c4)c3N)n2)cc1 | -1.72 | .
COc1ccc(OC)c(CNc2ncnc3onc(-c4cc(F)cc(F)c4)c23)c1 | 1.09 | .
Cc1nn(C)c(C)c1-c1ccc2c(c1)CN1CCC(O)C1=N2 (configuration not stated) | -0.05 | .
CCOC(=O)[C@H](CCCN=C(N)N)NC(=O)c1ccccc1 | . | -0.66
COc1ccc(NCc2ccc(OC)c(Cn3ccnc3)c2)c(OC)c1 | 0.07 | .
O=C1c2[nH]nc(-c3ccccc3O)c2C(c2ccccc2)N1CCO (configuration not stated) | 0.49 | -1.15
Cc1cc(OCc2nnc(-c3ccc4ccccc4c3)o2)c2nncn2n1 | . | 0.08
CC1CC(C)CN(C(=O)CCCn2c(=O)c3cccn3c3cccnc32)C1 (configuration not stated) | 1.22 | .
CN(C)CCCNc1cc(N2CCN(c3ccccc3)CC2)c2noc3c2c1C(=O)c1ccccc1-3 | 5.39 | -1.51
O=C(c1noc2c1CSc1ccccc1-2)N1CCN(c2ccccc2F)CC1 | 1.68 | -0.59
CSc1cccc(NC(=O)N2CSC[C@@H]2C(=O)NCc2csc(C)n2)c1 | 2.28 | .
O=C(CCCCn1c(=O)[nH]c2ccccc2c1=O)NCCC1=CCCCC1 | 0.73 | .
OC[C@H]1O[C@@](CO)(O[C@@H]2O[C@H](CO)[C@@H](O)[C@H](O)[C@H]2O)[C@@H](O[C@@H]2O[C@H](CO)[C@@H](O)[C@H](O)[C@H]2O)[C@@H]1O | -0.7 | .
Cc1ccc(-c2nc3c(c(SCC(=O)N4CCOCC4)n2)Cc2c(CO)cnc(C)c2O3)cc1 | 3.11 | .
Cc1c(C(=O)NCCCN2CCCC2=O)oc2ccc(S(=O)(=O)N3CCOCC3)cc12 | . | 0.37
CCCn1c(C2CC(=O)N(c3cccc(Cl)c3)C2)nc2ccccc21 (configuration not stated) | 3.26 | -1.37
CN(C(=O)c1noc2c1CSc1ccccc1-2)C1CCCCC1 | -0.18 | -1.48
O=C(O)c1ccc(OCOc2ccc(C(=O)O)c(C(=O)O)c2)cc1C(=O)O | . | -0.5
O=C(Nc1ccccc1Br)c1cnn(-c2cccc(F)c2)c1-n1cccc1 | 0.85 | .
COc1ccccc1C1Nc2nonc2NC2=C1C(=O)CC(C)(C)C2 (configuration not stated) | -0.53 | -1.5
Cn1ncc2c(Nc3ccc(Cl)cc3)nc(NCc3ccco3)nc21 | -0.23 | .
N#CCC(=O)NCc1ccco1 | . | -1.52
CCOc1ccc(C2C3=C(CCCC3=O)NC3=C2C(=O)CCC3)cc1OCC | -0.27 | -0.01
COc1ccc2c(c1)c(=O)oc1cc(OCC(=O)OC(C)(C)C)ccc12 | . | -9.38
Cc1cc(-c2ccc(S(=O)(=O)N3CCC(c4ccccc4)C3)s2)on1 (configuration not stated) | 0.11 | .

Compounds were not picked by outcome, and some 0.87% of all compounds hit somewhere here.
